Assay outcomes as filed in PubChem.
GLA inh pH 4.5: qHTS Assay for Inhibitors of Human alpha-Galactosidase at pH 4.5; Alpha-galactosidase A (Homo sapiens), P06280; purified enzyme, 4-MU-alpha-Gal fluorescence, pH 4.5; activity change, negative = inhibition, % at 105 µM; 230,000 tested, under 10 active; inconclusive = small, poorly fitted or top-dose-only inhibition, or a rising curve; inactive = flat fitted curve, though single readings scatter; no compound was filed as active;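 also: 0% = full activity with enzyme and -100% = basal without enzyme; dose as in the result columns while the protocol names 77 µM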
Rango-impB inh: qHTS Assay for Inhibitors of Rango (Ran-regulated importin-beta cargo) - Importin beta complex formation; Rango CFP/YFP FRET sensor + importin beta, 45 min; Potency, µM (titrated, usually from 92.2 µM), for the others: at the top dose inhibition of complex formation; Importin subunit beta-1 (Homo sapiens), Q14974; actives 0.031% (n = 340,000); active = rising FRET ratio curve, often small or poorly fitted; inconclusive = mostly compound fluorescence or quenching in the first reads; inactive = flat curves in all reads;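 also: potency is read from the fitted curve at half-maximal effect; 0% = DMSO wells and 100% = buffer wells lacking importin beta; nearly all actives have a fitted effect of over 15% in size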
Target sequence (Q14974 whole entry, looked up): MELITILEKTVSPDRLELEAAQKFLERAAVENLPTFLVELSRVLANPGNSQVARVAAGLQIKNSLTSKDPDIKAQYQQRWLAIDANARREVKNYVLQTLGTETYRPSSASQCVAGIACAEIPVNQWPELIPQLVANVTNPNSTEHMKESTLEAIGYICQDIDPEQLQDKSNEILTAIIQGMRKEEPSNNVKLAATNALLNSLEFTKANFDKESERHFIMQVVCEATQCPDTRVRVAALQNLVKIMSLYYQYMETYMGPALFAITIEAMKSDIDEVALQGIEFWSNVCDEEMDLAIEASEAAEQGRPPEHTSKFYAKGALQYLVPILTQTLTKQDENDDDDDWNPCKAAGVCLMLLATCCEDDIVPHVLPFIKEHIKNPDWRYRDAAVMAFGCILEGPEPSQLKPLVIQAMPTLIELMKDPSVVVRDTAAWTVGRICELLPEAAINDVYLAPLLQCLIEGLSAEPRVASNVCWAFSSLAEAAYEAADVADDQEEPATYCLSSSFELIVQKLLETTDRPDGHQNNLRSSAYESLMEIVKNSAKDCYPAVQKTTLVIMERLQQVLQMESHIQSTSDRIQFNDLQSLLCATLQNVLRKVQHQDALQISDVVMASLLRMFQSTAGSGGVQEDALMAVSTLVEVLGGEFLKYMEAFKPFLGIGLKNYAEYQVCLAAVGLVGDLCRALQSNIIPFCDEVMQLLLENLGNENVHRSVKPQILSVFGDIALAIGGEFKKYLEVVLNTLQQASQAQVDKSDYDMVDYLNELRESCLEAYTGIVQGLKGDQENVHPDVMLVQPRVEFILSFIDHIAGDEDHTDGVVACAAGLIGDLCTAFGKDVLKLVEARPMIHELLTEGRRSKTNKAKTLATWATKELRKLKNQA
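Inhibition scored from the CFP 486 nm/YFP 530 nm FRET ratio 45 min after adding 0.125 microM importin beta to 50 nM Rango biosensor preincubated 5 min with compound (room temperature, PBS with DTT, Tween-20, BSA). No-importin wells as positive control.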
miR-21 FLuc: qHTS Assay for Modulators of miRNAs and/orActivators of miR-21. Potency, µM (series often up to 38.3 µM), without a hit: at the top dose reporter change, positive = more light. AID 2288, 2010. HeLa miR-21 FLuc reporter, luciferase, 48 h. 340,000 tested, under 10 active; active = well fitted rising curve with a large enough effect; inconclusive = small, poorly fitted or top-dose-only effect; inactive = no such curve, though single readings can be large or run the other way;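 also: % of control where 0% means no effect; miR-21 action dims this reporter so a rising signal means less miR-21 action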
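Compounds were titrated across several concentrations (up to approximately 40 uM) and incubated 48 hours with HeLa miR-21-FLuc reporter cells (miR-21 target sequence downstream of FLuc, endogenous miR-21). Readout was firefly luciferase luminescence after lytic detection reagent.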
Rango release inh: qHTS Assay for Inhibitors of RanGTP induced Rango (Ran-regulated importin-beta cargo) - Importin beta complex dissociation. Potency, µM (top dose mostly 46.1 µM), inactives show at the highest dose activity change, negative = inhibition. Biochemical FRET Rango-importin beta, RanGTP-induced dissociation. AID 540253, 2011. Snurportin-1 (Homo sapiens) + GTP-binding nuclear protein Ran (Homo sapiens) + Importin …. actives 0.071% (n = 340,000); active means falling FRET ratio curve, often poorly fitted, with flat reads before Ran was added; inconclusive means other falling curves, or compound fluorescence or quenching; inactive means flat or rising ratio curve;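 also: potency is read from the fitted curve at half-maximal effect; % of control where 0% means no effect; nearly all actives have a fitted effect of over 45% in size; -100% = wells without RanGTP and RCC1; the record marks most hits as doubtful in a second field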
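Rango FRET biosensor (snurportin-1 IBB flanked by N-terminal EYFP and C-terminal CFP10) at 0.1 uM, with 0.25 uM importin beta in PBS, 1mM DTT, 0.02% Tween-20, 0.1% BSA. 0.6 uM Ran, 2mM GTP and 0.2 uM RCC1 were then added for 45 min at room temperature. Inhibition read as loss of FRET rise.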
Numbers without * were called inactive; ? = inconclusive; . = not tested or not shown; & = joins results of further samples. Some of the compounds tested (hit frequency here may not be typical).

| No. | compound | GLA inh pH 4.5 | Rango-impB inh | miR-21 FLuc | Rango release inh |
| --- | --- | --- | --- | --- | --- |
| 1 | CC1CCc2[nH]c3ccc(C(=O)N(C)CC(=O)Nc4ccc(F)cc4)cc3c2C1 (configuration not stated) | . | -0.2% | -6% | 11% |
| 2 | CN(C)C(=O)c1ccc(NC(=O)c2cccc(S(=O)(=O)N3CCCc4ccccc43)c2)cc1 | . | -4.5% | . | 5% |
| 3 | Cc1ccc(S(=O)(=O)/C(C#N)=C/c2c(N3CCC(C(N)=O)CC3)nc3ccccn3c2=O)cc1 | 1 | ? | -4% | 13µM* |
| 4 | CCCCn1c(NS(=O)(=O)c2ccccc2)c(S(=O)(=O)c2ccc(C)cc2)c2nc3ccccc3nc21 | ? | ? | 2% | ? |
| 5 | O=C(NNC1=NCCC1)C1CC1 | 3 | 0.1% | 1% | 3% |
| 6 | Nc1cc(C(=O)O)c(N)c2c1C(=O)c1ccccc1C2=O | -3 | 3.9% | ? | 8% |
| 7 | Cc1nc2c3cc(Cl)ccc3n(CCN3CCOCC3)c2s1 | -2 | -0.8% | 17% | -6% |
| 8 | O=C(N/N=C/c1ccccn1)c1ccccc1 | -4 | -2.9% | -50% | -5% |
| 9 | CC1(C)CC(=O)C(C(=O)Cc2ccccc2[N+](=O)[O-])C(=O)C1 | -5 | -2.0% | 0% | 2% |
| 10 | CCOc1ccc(NC(=O)CSc2nnc(C34CC5CC(CC(C5)C3)C4)n2C)cc1 | -6 | 0.3% | 1% | -3% |
| 11 | COc1ccc(C(=O)NCCc2c[nH]c3ccccc23)cc1S(=O)(=O)N1CCOCC1 | 4 | -0.7% | -12% | 10% |
| 12 | COC(=O)c1ccc[n+](CC(=O)c2ccc(Br)cc2)c1 | -10 | 0.0% | ? | -13% |
| 13 | Cc1cn2c(N)c(/C=C3\C=Nc4ccccc43)c(=O)nc2s1 | -14 | ? | -14% | ? |
| 14 | COc1ccc(CC(=O)NC2CCN(Cc3nnnn3C(C)(C)C)CC2)cc1OC | 5 | 3.8% | 1% | 2% |
| 15 | O=C(Nc1cc(Cl)cc(Cl)c1)c1cnn2cccnc12 | 11 | 0.0% | -8% | 16% |
| 16 | COc1ccc(-c2nc(CS(=O)CC(=O)NC3CCCCC3)c(C)o2)cc1OC (configuration not stated) | . | 0.0% | -11% | 1% |
| 17 | CCOC(=O)c1ccc(N2C(=O)c3n[nH]c(-c4ccco4)c3C2c2cccc([N+](=O)[O-])c2)cc1 (configuration not stated) | -27 | -2.5% | 17% | 11% |
| 18 | Cc1cc2nccc(-c3ccc(Cl)cc3Cl)n2n1 | . | 0.1% | -34% | -14% |
| 19 | CCOc1ccccc1OCc1nn2c(COc3ccccc3)nnc2s1 | -4 | 3.2% | -6% | ? |
| 20 | O=C(Nc1ccccc1-c1nc2ccccc2[nH]1)c1sc2ccccc2c1Cl | -4 | . | 0% | . |
| 21 | COc1ccc(C(=O)Oc2cccnc2)cc1OC | 3 | 5.1% | -8% | -6% |
| 22 | S=C(Nc1cc(Cl)ccc1Cl)Nn1cnnc1 | 0 | -0.4% | 3% | -9% |
| 23 | CCCCCC(=O)Nc1c(-c2cccs2)c(=O)c2ccccc2n1C | 5 | -0.5% | -1% | -9% |
| 24 | Cc1cc(-c2[nH]nc3c2C(c2ccsc2)C(C#N)=C(N)O3)c(C)s1 (configuration not stated) | -1 | -0.8% | 0% | 2% |
| 25 | COc1ccc(N(CC(=O)NCCC(C)C)C(=O)c2snc(C(=O)NC3CCCCC3)c2N)c(OC)c1 | . | -3.8% | 16% | -10% |
| 26 | CC(O)C(=O)N/N=C/c1cccc(Cl)c1Cl (configuration not stated) | 2 | -1.8% | -36% | 7% |
| 27 | Cc1nn2c(N3CCOCC3)cc(C(C)C)nc2c1-c1ccccc1 | . | 5.4% | -9% | -6% |
| 28 | CN(C)c1ccc(/C=N/N2CCN(Cc3ccccc3Cl)CC2)cc1 | . | -0.4% | -1% | 13% |
| 29 | C=CCn1c(NCc2ccc3c(c2)OCO3)nc2ccccc21 | 6 | -1.6% | -60% | -1% |
| 30 | COc1ccc(-c2cc(NC(=O)c3cncn3-c3ccccc3)ccc2OC)cc1 | . | 5.3% | -8% | 1% |
| 31 | COc1cc(-c2nc3ccc(C)cn3c2NCc2ccccc2)ccc1SC1CCCCC1 | . | ? | . | ? |
| 32 | O=C(COC(=O)c1ccc(Cl)nc1)NC1CCCCCC1 | . | -3.9% | . | -19% |
| 33 | CCOc1ccc(N2C(=O)CC(SC(=NC)Nc3cccc(OC)c3)C2=O)cc1 (configuration not stated) | 3 | 1.0% | -1% | -6% |
| 34 | CCN(C[C@H]1N[C@@](Cc2ccccc2)(C(=O)OC)[C@H]2C(=O)N(C)C(=O)[C@@H]12)S(=O)(=O)c1ccc(C(F)(F)F)cc1 | . | 0.0% | . | 8% |
| 35 | C[C@@H](NC(=O)c1[nH]cnc1C(=O)Nc1cccc(Cl)c1)c1ccccc1 | . | 3.4% | . | 1% |
| 36 | CCOC(=O)c1c(N)sc2c1C1CCN2CC1 | 0 | -0.5% | -13% | -20% |
| 37 | CC1CCCN(CC(=O)NNC(=O)COc2ccc(Br)cc2)C1 (configuration not stated) | . | 5.3% | . | 13% |
| 38 | COc1ccc(S(=O)(=O)N2CCOCC2)cc1NC(=O)COc1cccnc1[N+](=O)[O-] | 0 | -0.1% | -1% | 1% |
| 39 | Nc1nnc(SCC(=O)Nc2ccccc2)s1 | -5 | -1.6% | -6%&-10% | 0% |
| 40 | CCOC(=O)N1CCN(Cc2nc3c(c(=O)n(C)c(=O)n3C)n2Cc2cccc3ccccc23)CC1 | -3 | 1.6% | -5% | -16% |
| 41 | O=C(N/N=C/c1cccc(Oc2ccc([N+](=O)[O-])cc2[N+](=O)[O-])c1)c1cncc(Br)c1 | -4 | -0.9% | 0% | -9% |
| 42 | Cc1cc(C)c(OCC(=O)OCC(=O)N2CCN(C(=O)c3ccco3)CC2)c(C)c1 | . | 1.7% | . | 15% |
| 43 | CCc1ccc(-c2cn3nc(-c4ccccc4)cnc3n2)cc1 | 2 | ? | -15% | ? |
| 44 | CC1CC(=O)N(Cc2ccccc2)c2ccccc2N1C=O (configuration not stated) | -26 | -0.7% | -8% | -6% |
| 45 | CCOc1ccc(/C=C2\SC(=O)N(CCNC(=O)C3COc4ccccc4O3)C2=O)cc1OC (configuration not stated) | 0 | ? | 0% | -5% |
| 46 | O=C(COC(=O)Cc1cccc(C(F)(F)F)c1)Nc1ccccc1 | -2 | 0.1% | -4% | 10% |
| 47 | COc1ccc(-c2[nH]nc3c2C(c2ccsc2)C(C#N)=C(N)O3)cc1 (configuration not stated) | -19 | -0.8% | -3% | -3% |
| 48 | COc1ccc(S(=O)(=O)O)cc1P(=O)(c1ccccc1)c1ccccc1 | . | -0.3% | -1% | 9% |
| 49 | Cn1c(=O)[nH]c(=O)c2c1nc(N1CCOCC1)n2CCCSc1ncccn1 | -4 | 0.0% | 0% | -4% |
| 50 | Cc1ccc(CSCCNC(=O)/C=C/c2ccc(Cl)cc2)cc1 | 7 | -0.7% | 0% | -11% |

Other records:
| No. | compound | GLA inh pH 4.5 | Rango-impB inh | miR-21 FLuc | Rango release inh |
| --- | --- | --- | --- | --- | --- |
| 51 | COc1ccc(OC)c(NC(=O)C2CCCN2C(=O)C2CCC(C)CC2)c1 (configuration not stated) | 4 | 0.3% | -2% | -13% |
| 52 | O=C(O)c1ccc(-n2cccc2/C=C2/NC(=O)N(c3cccc(Cl)c3)C2=O)cc1 | -12 | ? | -13% | -23% |
| 53 | Cc1[nH]oc(=O)c1N=Nc1ccccc1 | 1 | -1.8% | ? | 2% |
| 54 | O=C(Nc1cccc(NC(=O)c2ccc(Cl)cc2Cl)c1)c1cccnc1 | . | -0.1% | 8% | -2% |
| 55 | CCn1cc(C(=O)NNC(=O)c2ccc(Cl)cc2)c(=O)c2ccc(C)nc21 | 1 | . | -6% | . |
| 56 | COc1ccc(CNC(=O)COc2cc(=O)n(C)c3ccccc23)cc1 | 2 | -0.2% | -1% | 18% |
| 57 | CCN1CCN(c2c(C=O)c(Cl)nc3ccc(OC)cc23)CC1 | . | -1.8% | 4% | 0% |
| 58 | COc1ccc(N2CCN(c3ncccc3C#N)CC2)cc1 | -2 | 0.9% | -21% | 12% |
| 59 | O=C(Cn1cc([N+](=O)[O-])cn1)Nc1ccn(Cc2c(F)c(F)cc(F)c2F)n1 | -3 | 1.5% | 4% | 0% |
| 60 | O=C(COC(=O)CCC(=O)c1ccc(F)cc1)NCc1ccc(Cl)cc1 | . | 0.3% | . | -3% |
| 61 | COc1cc2c(cc1OC)CN(C(=O)c1nn(Cc3ccccc3)c(=O)c3ccccc13)CC2 | . | 1.9% | . | -3% |
| 62 | Cc1ccc(NC(=O)C(SCC(=O)O)c2ccccc2)cc1C (configuration not stated) | 3 | 2.0% | -7% | -6% |
| 63 | CSc1ccccc1-c1nnc(-c2ccc(Cl)cc2Cl)o1 | -10 | 1.5% | -33% | 3% |
| 64 | Cc1nn(-c2ccccc2)c(C)c1NC(=O)COC(=O)c1ccc(Cl)c(N)c1 | . | -0.3% | . | 4% |
| 65 | Cc1cc(C)c(NC(=O)C2CCCN2CCOC(=O)c2cccc([N+](=O)[O-])c2)c(C)c1 (configuration not stated) | -3 | 5.5% | -4% | 18% |
| 66 | COC(=O)C1=C(C)N(Cc2ccccc2)C(=S)N[C@H]1c1cccc(F)c1 | . | -1.0% | 6%&6% | 11% |
| 67 | COc1ccc(/C=C2/N=C(SC)NC2=O)cc1OC | -8 | ? | -32% | ? |
| 68 | Cc1ccc(NC(=O)COc2cccnc2[N+](=O)[O-])cc1S(=O)(=O)N1CCOCC1 | 4 | 5.1% | -10% | 5% |
| 69 | CC1CCCN(C(=O)CSc2nnc(-c3c[nH]c4ccccc34)o2)C1 (configuration not stated) | 0 | -1.1% | -37% | -8% |
| 70 | O=C(c1ccccc1Br)N1N=C(c2ccccc2)CC1c1ccccc1F (configuration not stated) | . | 0.0% | 5% | -13% |
| 71 | COc1cccc(NC(=O)CSc2nnc(CNC(=O)c3ccco3)n2C)c1 | . | -2.0% | . | ? |
| 72 | FC(F)(F)c1cccc(NC(=S)NCc2ccccc2)c1 | 1 | 1.9% | 30% | -10% |

By substructure: the entries above containing an NH in an aromatic ring.
| No. | compound | GLA inh pH 4.5 | Rango-impB inh | miR-21 FLuc | Rango release inh |
| --- | --- | --- | --- | --- | --- |
| 1 | CC1CCc2[nH]c3ccc(C(=O)N(C)CC(=O)Nc4ccc(F)cc4)cc3c2C1 (configuration not stated) | . | -0.2% | -6% | 11% |
| 11 | COc1ccc(C(=O)NCCc2c[nH]c3ccccc23)cc1S(=O)(=O)N1CCOCC1 | 4 | -0.7% | -12% | 10% |
| 17 | CCOC(=O)c1ccc(N2C(=O)c3n[nH]c(-c4ccco4)c3C2c2cccc([N+](=O)[O-])c2)cc1 (configuration not stated) | -27 | -2.5% | 17% | 11% |
| 20 | O=C(Nc1ccccc1-c1nc2ccccc2[nH]1)c1sc2ccccc2c1Cl | -4 | . | 0% | . |
| 24 | Cc1cc(-c2[nH]nc3c2C(c2ccsc2)C(C#N)=C(N)O3)c(C)s1 (configuration not stated) | -1 | -0.8% | 0% | 2% |
| 35 | C[C@@H](NC(=O)c1[nH]cnc1C(=O)Nc1cccc(Cl)c1)c1ccccc1 | . | 3.4% | . | 1% |
| 47 | COc1ccc(-c2[nH]nc3c2C(c2ccsc2)C(C#N)=C(N)O3)cc1 (configuration not stated) | -19 | -0.8% | -3% | -3% |
| 49 | Cn1c(=O)[nH]c(=O)c2c1nc(N1CCOCC1)n2CCCSc1ncccn1 | -4 | 0.0% | 0% | -4% |
| 53 | Cc1[nH]oc(=O)c1N=Nc1ccccc1 | 1 | -1.8% | ? | 2% |
| 69 | CC1CCCN(C(=O)CSc2nnc(-c3c[nH]c4ccccc34)o2)C1 (configuration not stated) | 0 | -1.1% | -37% | -8% |
